# Calb biofilm kill: mixtures killing C. albicans biofilm; C. albicans biofilm persisters + clotrimazole, fluorescence viability; primary screen in compound mixtures of four per well; inhibition, % at 7.6 µM; hit rate 0.02% among 120,000;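 active = inhibition above 30.3% in the primary screen of four-compound pools, then above 30% when the compound was retested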;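 also: compounds exposed to preformed 24 h biofilms for 48 h; the number belongs to the whole pool; some results filed as inactive read as strong as hits; inactives centre near 12; 0% = biofilm with clotrimazole alone and 100% = kill control; retested singly at about 60 µM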
#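 Assay system: C. albicans biofilms / Medium: RPMI/MOPS medium, pH 7.0 / Schedule: biofilm formation 24 h, compound exposure 48 h, 37 °C / Measured by: Alamar Blue fluorescence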
# Starred values were filed as active, the others as inactive.
# Start of the listing, in advance:
SMILES,Calb biofilm kill
CCC1=C(OC(=O)N(CC)CC)N2C(=O)OC(=NCC3CC3)[C@]2(C)[C@H]2C1=CC[C@H]1C(=O)NC(=O)[C@H]12,19
Cc1ccc(S(=O)(=O)N2CCN(CC(=O)N/N=C\c3cccnc3)CC2)cc1,7
O=C(NCc1ccc2c(c1)OCO2)C1CCN(S(=O)(=O)N2CCOCC2)CC1,14
COC(C[C@@H](O)C[C@H](O)COCc1ccccc1)OC,13
O=C(COc1ccc(S(=O)(=O)NC2CCCCC2)cc1)NC1CCCC1,8
CCCN(CCC)C(=O)C1CCCN1S(=O)(=O)c1cccc2nsnc12 (stereo unspecified),-40
CC(C)=NOc1cc(NC(=O)CCl)cc([N+](=O)[O-])c1,12
CCOC(=O)/C(C(=O)Nc1ccc(Cl)cc1Cl)=C1/NC(C)(C)Cc2ccccc21,13
COCCNC(=O)Nc1ccc2nc(C)sc2c1,14
Cc1cc(NC(=O)c2cc(-c3ccc(Br)cc3)on2)no1,6
CN(C)c1nc(N(C)C)nc(N(C)C)n1,11
Cc1ccc(C)c(N2N=C(C(=O)O)CCC2=O)c1,25
CCOC(=O)C1=C(O)C(=O)NC(c2ccccc2)=C(OCC)C1,13
CC(=O)Nc1ccc(NC(=O)c2nc(-c3ccccc3)oc2C)cc1,9
COc1ccc(OC)c(/C=C/C(=O)N2CCCc3ccccc32)c1,27
CCOc1ccccc1C(=O)N[C@H](C(=O)NCc1ccccc1)C(C)C,13

# Main list, previewed entries included:
SMILES,Calb biofilm kill
CCC1=C(OC(=O)N(CC)CC)N2C(=O)OC(=NCC3CC3)[C@]2(C)[C@H]2C1=CC[C@H]1C(=O)NC(=O)[C@H]12,19
Cc1ccc(S(=O)(=O)N2CCN(CC(=O)N/N=C\c3cccnc3)CC2)cc1,7
O=C(NCc1ccc2c(c1)OCO2)C1CCN(S(=O)(=O)N2CCOCC2)CC1,14
COC(C[C@@H](O)C[C@H](O)COCc1ccccc1)OC,13
O=C(COc1ccc(S(=O)(=O)NC2CCCCC2)cc1)NC1CCCC1,8
CCCN(CCC)C(=O)C1CCCN1S(=O)(=O)c1cccc2nsnc12 (stereo unspecified),-40
CC(C)=NOc1cc(NC(=O)CCl)cc([N+](=O)[O-])c1,12
CCOC(=O)/C(C(=O)Nc1ccc(Cl)cc1Cl)=C1/NC(C)(C)Cc2ccccc21,13
COCCNC(=O)Nc1ccc2nc(C)sc2c1,14
Cc1cc(NC(=O)c2cc(-c3ccc(Br)cc3)on2)no1,6
CN(C)c1nc(N(C)C)nc(N(C)C)n1,11
Cc1ccc(C)c(N2N=C(C(=O)O)CCC2=O)c1,25
CCOC(=O)C1=C(O)C(=O)NC(c2ccccc2)=C(OCC)C1,13
CC(=O)Nc1ccc(NC(=O)c2nc(-c3ccccc3)oc2C)cc1,9
COc1ccc(OC)c(/C=C/C(=O)N2CCCc3ccccc32)c1,27
CCOc1ccccc1C(=O)N[C@H](C(=O)NCc1ccccc1)C(C)C,13
O=C(COC(=O)c1cc[n+]([O-])cc1)Nc1ccc([N+](=O)[O-])cc1Cl,12
COc1ccc(-c2c(C)nn3c(N)c(C#N)cnc23)cc1OC,2
c1ccc(COc2ccccc2CNc2nn[nH]n2)cc1,8
COc1ccc(C2(CNC(=O)c3cc([N+](=O)[O-])cc([N+](=O)[O-])c3)CCCC2)cc1OC,1
CCOC(=O)C1(C)NC(c2ccco2)C2C(=O)N(C)C(=O)C21 (stereo unspecified),21
O=C(Cn1c(=O)n(-c2ccc(F)cc2)c(=O)c2sccc21)c1ccccc1,11
Cc1ccc(NC(=O)OCCNC(=O)c2ccncc2)cc1,29
Cc1cnc(C(=O)N2CCCC(C(=O)c3ccc(C(C)(C)C)cc3)C2)cn1 (stereo unspecified),0
CCOC(=O)c1sc(=S)n(Cc2ccccc2)c1C,18
CCOc1cc(C(=O)OCC(=O)Nc2ccc(Cl)cn2)ccc1OCC(=O)N1CCOCC1,-10
CCOC(=O)N1CCN(C(=O)c2ccc(CSc3ccc(Cl)cc3)cc2)CC1,8
O=C1N(C2CCCC2)C[C@@H]2C[C@@H](c3cccn3-c3ccccn3)N3CCC[C@@]123,6
CCN(CC)C(=O)C1(P(=O)(c2ccccc2)c2ccccc2)CCC1,20
Cc1ccc(-n2c(Cn3ncc4ccccc4c3=O)n[nH]c2=S)cc1,9
O=C(NC(=S)NC(=O)c1ccccc1F)c1ccccc1F,2
Cc1ccc(CSCC(=O)N2CCN(c3ccccc3)CC2)cc1,5
Cc1nc2ccccc2cc1C(=O)NCc1ccc(F)cc1,11
CCN(CC)C(=O)c1[nH]cnc1C(=O)N[C@@H](C)C(=O)OCc1ccccc1,7
Cc1ccccc1-c1nn(-c2ccc(F)cc2F)cc1CNCCCN(C)C,0
CCN(CC)c1ccc(N=Cc2cc(Br)ccc2O)cc1,14
CCCc1nnc(NC(=O)CCC(=O)N2CCN(S(=O)(=O)c3ccc(F)cc3)CC2)s1,15
COc1cc(SC)ccc1C(=O)N1CCN(c2ccc(O)cc2)CC1,5
Cc1nn(CC(=O)N/N=C/c2cccs2)c(C)c1[N+](=O)[O-],31
Cc1ccc(NC(=O)CN(C)C(=O)CCOc2cccc(C)c2)cc1,13
Cc1ccc(C(=O)N/C(=C/c2ccccc2)C(=O)NCc2ccncc2)cc1,12
Cc1cc(Nc2ccccc2Br)n2nc(C)nc2n1,17
Cc1nnc(NC(=O)CSc2nnc(-c3ccccc3)n2C)s1,14
C/C(=N/NC(=O)CCCOc1ccc(Cl)cc1Cl)c1ccc(C)o1,18
O=C(Cn1cnc2cc([N+](=O)[O-])ccc2c1=O)Nc1ccc2c(c1)OCO2,17
CCC(=O)Nc1cccc(C2=NOC3(C2)C[C@@H](C(N)=O)N(C(=O)C2(C)CC2)C3)c1 (stereo partly specified),-4
O=C(NCC1CCCO1)c1csc(Nc2cccc3ccccc23)n1 (stereo unspecified),21
CCOc1ccc(NC(=S)N(CCc2c(C)[nH]c3ccc(C)cc23)Cc2ccco2)cc1,3
O=S1(=O)C=C(SCc2ccc(F)cc2)Nc2ccccc21,10
Cc1cc(C(=O)O/N=C(\N)c2ccncc2)ccc1[N+](=O)[O-],-3
COc1ccccc1NC(=O)Cc1nnc(SCC(=O)Nc2ccccc2F)n1C,5
Cc1ccnc(NC(=O)CCC(=O)N(CC(=O)NCCc2ccccc2)Cc2cccs2)c1,5
CNC(=S)NCCc1cc2c(OC)ccc(OC)c2[nH]c1=O,17
Cc1nn(CC(=O)Nc2cc(S(=O)(=O)N(C)C)ccc2Cl)c(C)c1[N+](=O)[O-],17
O=C(CSc1nnc(-c2ccccc2O)n1Cc1ccccc1)NNC(=O)c1ccccc1O,9
CC(O)[C@H]1CNC(=O)C(=O)N1CCC12CC3CC(CC(C3)C1)C2 (stereo partly specified),20
Cc1ccc(C)n1-c1sc2c(c1C#N)CCCC2,8
CCC(Sc1ncnc2c1c(-c1ccccc1)cn2-c1ccc(OC)cc1)C(=O)OC (stereo unspecified),9
CC1Nc2nc(N(C)C)[nH]c(=O)c2NC1C (stereo unspecified),3
CCN(CC)C(C(=O)NC1CCCCC1)c1ccc(C)cc1 (stereo unspecified),10

# Continued:
SMILES,Calb biofilm kill
Cc1cc(C(=O)COC(=O)/C=C/c2cccc(F)c2)c(C)n1C,10
COc1ccccc1C(=O)NCC(=O)N/N=C/c1cccc(Cl)c1,12
CCc1ccc(NC(=O)C(C)OC(=O)c2cc(=O)[nH]c3ccc(S(=O)(=O)Nc4ccc(F)cc4)cc23)cc1 (stereo unspecified),-3
O=C(CNC(=O)C(c1ccccc1)c1ccccc1)N/N=C\c1ccc2c(c1)OCO2,11
Cc1ccc(C(=O)NNC2=Nc3cccc4cccc2c34)cc1,12
CCOc1ccccc1NS(=O)(=O)c1cn(C)c(=O)n(C)c1=O,-2
Cc1c(C)n(CC(O)CNCCO)c2ccccc12 (stereo unspecified),7
COc1ccc(NC(=S)Nn2cnnc2)cc1OC,-6
Cc1ccc(NC(=O)/C(=C/c2cccs2)NC(=O)c2ccco2)cc1,-5
COc1cccc2cc(C(C)N(CCCN3CCOCC3)C(=S)Nc3cccc(C)c3C)oc12 (stereo unspecified),29
COC(=O)C1=NN(C(C)=O)C2(CC(=O)N(c3cccc(C)c3)C2=O)C1 (stereo unspecified),16
O=C(N/N=C/c1ccc(N2CCOCC2)cc1)c1ccc(NS(=O)(=O)c2cccs2)cc1,9
Cc1ccc2nc(NC(=O)CCCC(=O)O)sc2c1,9
O=C(N/N=C/c1ccccc1F)NC1CCCCC1,6
COc1ccc(C(=O)/C=C/c2ccc(OC(=O)c3cc(OC)c(OC)c(OC)c3)cc2)cc1,13
O=C(N/N=C/c1c[nH]c2ccccc12)c1ccn[nH]1,3
CCSC(SCC)[C@H](O)[C@@H](O)[C@H](O)[C@H](O)CO,19
O=C(O)C1C(=O)NCC1c1ccccc1 (stereo unspecified),13
COc1cc2[nH]c(=S)nc(Nc3ccc(NC(C)=O)cc3)c2cc1OC,1
CCN(CC1COc2ccccc2O1)C(=S)NC1CC2CCC1C2 (stereo unspecified),14
Cc1ccc(C(=O)Nc2ccc3[nH]c(=O)[nH]c3c2)c(C)c1,9
CN(C)S(=O)(=O)c1cccc(NC(=O)CNCc2ccccn2)c1,3
Cc1ccc(C(=O)N2CCOCC2)cc1[N+](=O)[O-],8
CCOC(=O)c1c(NC(=O)c2cnn3c2NC(c2cccc(OC)c2)CC3C(F)(F)F)sc2c1CCCC2 (stereo unspecified),13
Cc1ccc(C)c(S(=O)(=O)Nc2ccc(C(N)=O)cc2)c1,8
Cc1ccc(S(=O)(=O)N2CCCCC2)cc1NC(=O)Nc1ccc(Cl)cc1Cl,-2
CCC(NC(=O)c1ccccc1NC(=O)c1ccco1)C(=O)NNC(=O)c1ccncc1 (stereo unspecified),23
CC(=O)c1ccc(N2CCC(C(=O)O)CC2)cc1,18
Cc1ccc(Nc2c(-c3ccccn3)nc3cc(C)ccn23)cc1,6
CC(=O)NCC(O)c1ccc([N+](=O)[O-])cc1 (stereo unspecified),9
CCCCN(CC)CCNC(=O)CCNC(=O)Cn1ccc2ccccc2c1=O,8
COCCCNC(=S)NC(=O)c1ccc([N+](=O)[O-])cc1,7
O=C(CCSc1ccc(Br)cc1)Nc1cccnc1,11
CCOC(=O)c1[nH]cnc1C(=O)Nc1ccc(F)cc1,16
O=C(/C=C/c1ccc(F)cc1)Nc1cccc(S(=O)(=O)Nc2cccc(C(F)(F)F)c2)c1,6
Cc1nc(Cl)c(C(=O)NCCC(C)C)c(C)c1[N+](=O)[O-],13
CCOC(=O)c1ccc(CC(=O)c2ccc(O)c(O)c2O)o1,11
C/C(=N/Nc1nc(-c2ccccc2)cc(-c2ccc(F)cc2)n1)c1cccc(N)c1,6
C/C(N)=C(/C#N)C(=O)CSc1ccccc1F,22
CN(Cc1cnccn1)Cc1c(C(=O)N2CCc3ccccc3C2)nc2ccc(Cl)cn12,-3
CC(C)(C)c1ccc(OCCNC(=S)Nc2ccccc2)cc1,7
CCOC(=O)CN1C(=O)S/C(=C/c2ccc(OC)c([N+](=O)[O-])c2)C1=O,20
COC(=O)c1ccc2c(=O)n(-c3ccccc3)c(=S)[nH]c2c1,11
CCC(C)n1c(=N)c(C#N)cc2c(=O)n3ccccc3nc21 (stereo unspecified),15
O=C(NCCc1ccccc1)C1CCCN1S(=O)(=O)c1ccccc1 (stereo unspecified),14
Cc1sc2ncnc(SCC(=O)NC(=O)c3cccn3C)c2c1C,11
CCN(CC)c1ccc(NC(=O)COc2ccc(N(C)S(=O)(=O)c3cccs3)cc2)cc1,14
CC(C)[C@@H]1NC(=O)c2cc([N+](=O)[O-])cc(I)c2NCCCC[C@@H](C(=O)NC(CC(=O)O)C(N)=O)NC(=O)[C@H](CO)NC1=O (stereo partly specified),16
CCS(=O)(=O)c1cc([N+](=O)[O-])c(Sc2ccccc2N)s1,13
O=C1c2cc([N+](=O)[O-])ccc2-c2ncccc21,1
CCCCCn1c(=O)c(Cc2ccccc2)c(O)c2ccccc21,-4
O=C(Nc1ccc(Cl)c(Cl)c1)c1ccc(Cn2cc(Cl)cn2)cc1,7
CCOc1ccc(/C=C2/C(=N)N3OC(C)=CC3=NC2=O)cc1OC,14
CC1=C(CC/C(C)=N/NC(N)=S)C(C)(C)CCC1,13
COc1ccc(NC(=S)NCC2CCCO2)c(C)c1 (stereo unspecified),21
O=C(/C=C/c1ccccc1)NCCSCc1ccccc1,8
CCCN1CCN(c2ccc([N+](=O)[O-])cc2C#N)CC1,8
COc1ccc(NC(=O)c2cc(-c3ccccc3)oc2C)cc1,14
COC(=O)/C=C1/S/C(=N/N=C/c2ccc(N(C)C)cc2)NC1=O,18
COc1ccccc1Nc1nc2nonc2[nH]c1=O,30

# Some values from above.
# Entry of O=C1c2cc([N+](=O)[O-])ccc2-c2ncccc21 in Calb biofilm kill: 1
# Entry of Cc1sc2ncnc(SCC(=O)NC(=O)c3cccn3C)c2c1C in Calb biofilm kill: 11

# (more compounds)
SMILES,Calb biofilm kill
N/C(=N\OC(=O)COc1ccc(Cl)cc1Br)c1cccnc1,16
CN(CC(=O)Nc1ccc(F)cc1)CC(=O)Nc1ccc(Cl)c(S(=O)(=O)N2CCOCC2)c1,24
Cn1ccnc1C(O)c1ccccc1 (stereo unspecified),8
COc1cc(C2CC(=O)Oc3c(C(CCN4CCCC(C)C4)c4ccc(N(C)C)cc4)c(OC)cc(OC)c32)cc(OC)c1OC (stereo unspecified),13
COCCN1C2=C(COC(C)(C)C2)C(=S)NC1c1ccccc1 (stereo unspecified),14
Cc1nc([N+](=O)[O-])cn1CC(=O)Nc1ccc2c(c1)OCO2,13
CCCCOc1ccc(/C=C/C(=O)OCC(=O)NC(=O)NCC(C)C)cc1OCC,13
C/C(=N\N1CCN(c2ccc(Cl)cc2)CC1)c1cccs1,17
COc1ccc(NC(=S)N2CCN(C/C=C/c3ccccc3)CC2)c(OC)c1,12
O=C(CCN1CCC(c2ccc(Cl)s2)=N1)c1ccc(Cl)s1,8
CC(=O)N1CCc2c(sc(NC(=O)CN3C(=O)c4ccccc4C3=O)c2C(N)=O)C1,15
CC(=O)Nc1sc2c(c1C(c1ccccc1Cl)N1CCN(CCO)CC1)CCCC2 (stereo unspecified),7
COc1ccc(Cc2nnc(NC(=O)C(C)(C)C)s2)cc1,18

# Assay outcomes (PubChem BioAssay)

# Some of the compounds tested (hit frequency here may not be typical).
